# Screens as filed in PubChem BioAssay.
# GALR2 agonist – agonists of human galanin receptor 2 (GALR2); GALR2-expressing cells, agonist activation read-out; actives 0.48% (n = 140,000); O43603; AID 803; activation, %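 (tested at 5 µM)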;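 active = above mean plus 3 SD of all compounds, about 5% in these data, not always enough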;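 note: 0% = vehicle buffer wells and 100% = reference agonist at full effect; tested in CHO reporter cells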
# Target sequence (O43603 whole entry, looked up): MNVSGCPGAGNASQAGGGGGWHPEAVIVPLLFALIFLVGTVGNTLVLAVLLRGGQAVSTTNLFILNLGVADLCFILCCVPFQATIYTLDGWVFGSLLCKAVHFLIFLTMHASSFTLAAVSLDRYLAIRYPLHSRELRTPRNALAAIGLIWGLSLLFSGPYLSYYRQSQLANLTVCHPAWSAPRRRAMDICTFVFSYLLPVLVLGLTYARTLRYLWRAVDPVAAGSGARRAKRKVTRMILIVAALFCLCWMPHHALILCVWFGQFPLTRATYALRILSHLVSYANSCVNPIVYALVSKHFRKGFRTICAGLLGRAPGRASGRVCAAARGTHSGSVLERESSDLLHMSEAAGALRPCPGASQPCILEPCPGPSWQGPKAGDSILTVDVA
# HSV replic up – increases HSV replication in cells; actives 0.005% (n = 220,000); maximum fold increase; AID 1956; HSV replication augmentation in cells, fold increase;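 active = peak rise of 1.5-fold or more in the series; tested in PC3 cells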;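 note: first round at 10 µM; read as green reporter fluorescence; hits show the peak of a series up to 25 µM; 1 = signal of infected wells without compound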
# Insulin prom inh – TRM-6 insulin promoter activity inhibition | TRM-6 cells (human fetal islet line), insulin promoter-eGFP reporter, imaging; reporter expression induced with tamoxifen | inhibition, % at 2 µM | actives 0.9% (n = 130,000) | AID 1273;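 active = inhibition above the mean plus 3 SD, with well images judged a real hit on visual review, cut at about 60% in these data, passing the limit was not always enough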
# RGS16-Gao HTS – RGS16-Galphao interaction regulator (human); binding response (% of control), % at 10 µM; AID 1441; O15492+P09471; bead-based flow cytometry RGS16-Galphao binding, fluorescence; actives lie on both sides; actives 0.38% (n = 220,000);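 active = below 25% or above 175%, edge rows of some plates excepted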;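 note: Galphao activated by GDP with aluminum fluoride before binding; 100% = wells without compound and 0% = beads without RGS; some results beyond the cut were filed as inactive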
# Target sequence (O15492 whole entry, looked up): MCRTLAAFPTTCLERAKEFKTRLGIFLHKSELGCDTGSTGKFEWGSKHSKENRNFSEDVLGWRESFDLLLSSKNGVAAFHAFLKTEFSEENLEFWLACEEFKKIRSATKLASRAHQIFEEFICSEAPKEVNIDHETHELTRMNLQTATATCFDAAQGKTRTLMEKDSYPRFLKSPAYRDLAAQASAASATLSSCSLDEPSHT
# Target sequence (P09471 whole entry, looked up): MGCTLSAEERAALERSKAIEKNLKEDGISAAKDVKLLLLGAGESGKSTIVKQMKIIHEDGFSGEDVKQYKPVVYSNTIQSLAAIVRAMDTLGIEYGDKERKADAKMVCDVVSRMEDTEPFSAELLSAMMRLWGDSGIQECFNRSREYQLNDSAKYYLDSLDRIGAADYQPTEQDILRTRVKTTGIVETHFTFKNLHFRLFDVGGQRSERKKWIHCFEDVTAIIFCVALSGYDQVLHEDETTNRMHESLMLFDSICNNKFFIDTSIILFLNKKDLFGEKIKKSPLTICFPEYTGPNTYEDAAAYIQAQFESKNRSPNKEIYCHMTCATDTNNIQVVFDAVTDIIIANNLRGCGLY
# PKD1 inh – inhibitors of human PKD1 kinase. Q15139. actives 0.056% (n = 200,000). PKD1 kinase fluorescence polarization assay. AID 797. inhibition, %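 (about 10 µM by stock and volumes)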;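 active = inhibition of 50% or more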;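 note: controls were vehicle for no effect and a reference inhibitor for full effect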
# Insulin prom inh cell count – further read-out of Insulin prom inh, marked with its call; normalized cell count, %; measured here: cell count, toxicity; reference of the scale not given here;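 cells exposed to compound for 48 h; stained nuclei by imaging scaled within each plate; lower means fewer cells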
# HSV replic up primary fold – further read-out of HSV replic up, marked with its call; fold increase; compound at 10 µM; measured here: primary screen fold increase 10 uM; tested in PC3 cells;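 GFP signal in the first replicate; 1 = infected wells without compound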
# An asterisk follows results filed as active; i = inactive; · = not tested or not shown.
SMILES,GALR2 agonist,HSV replic up,HSV replic up primary fold,Insulin prom inh,Insulin prom inh cell count,RGS16-Gao HTS,PKD1 inh
COc1cccc(CNCCc2c[nH]c3ccccc23)c1OCc1ccccc1,-1.8,i,0.84,·,·,91,7
O=C(O)CSc1nnc(-c2cc3ccccc3o2)n1-c1ccccc1,-2.1,i,0.96,-36,114,101,-3
Cc1ccc2c(c1)C(O)(CC(=O)c1cccc(-n3cccc3)c1)C(=O)N2 (centres undefined),·,i,1,60,100,101,0
CCOc1ccc(C(=O)NCCC2=CCCCC2)cc1OCC,·,i,0.92,·,·,103,-6
Cc1c(N(C)C(=O)C2CCCN2S(=O)(=O)c2ccccc2)c(=O)n(-c2ccccc2)n1C (centres undefined),-3.2,i,0.79,-9,132,90,-3
Cc1ccc2cccc(OCC(=O)N3CCc4ccccc43)c2n1,·,i,0.83,36,128,103,-2
CC(NC1CCCC1)C(=O)Nc1ccccc1-c1ccccc1 (centres undefined),12*,i,0.85,-11,103,97,-6
CCCCn1c(SCC(=O)N(CC)C2CCS(=O)(=O)C2)nnc1C(CC)N(C)C (centres undefined),-0.8,i,0.99,15,118,101,3
CCc1nc(NCCN)c(C#N)c2c1CSC(C)(C)C2,0.0,i,1,45,66,101,-4
Cc1ccc(Nc2nc3ccccc3[nH]2)nc1,-1.9,i,0.74,13,107,108,-7
Cc1noc(C)c1COC(=O)c1ccc(S(=O)(=O)NCc2ccco2)cc1,-1.6,i,0.82,·,·,98,2
CCOC(=O)c1cc(-c2ccccc2)sc1NC(=O)COC(=O)c1cccc(S(N)(=O)=O)c1,·,i,0.57,·,·,113,2
Cc1noc(C)c1C(=O)N1CCOCC1,-2.0,i,1,-12,96,97,3
COC(=O)c1ccccc1NC(=O)CN(C)S(=O)(=O)c1cc(C)ccc1OC,-1.6,i,0.85,-26,106,106,0
COc1ccccc1C(=O)N1CCNC(=O)C1CC(=O)Nc1ccc(Cl)cc1 (centres undefined),-1.8,i,0.76,-215,85,99,5
O=C(Nc1ccc(O)cc1C(=O)O)c1ccc2c(c1)C(=O)N(Cc1ccco1)C2=O,-2.6,i,0.86,38,152,102,-3
CC1CCCC/C1=N\NC(=S)Nc1ccccc1 (centres undefined),·,i,0.97,·,·,95,2
Cc1ccc(OCC(O)Cn2c3ccccc3c3ccccc32)cc1 (centres undefined),-3.0,i,0.68,3,100,94,1
COc1ccc(C2OC[C@H]3O[C@H](O)[C@H](NC(C)=O)[C@@H](O)[C@@H]3O2)cc1 (some centres undefined),·,i,0.98,·,·,105,-3
CNc1ccncc1S(=O)(=O)NC,-0.9,i,1,23,147,100,-20
O=C(Nc1cccc2ncccc12)c1ccc2c(c1)OCCO2,-1.5,i,1,-203,51,95,6
Cc1ccc(S(=O)(=O)NCC(=O)NCC(=O)OCC(=O)N2CC(=O)Nc3ccccc32)cc1C,·,i,0.92,67,73,98,-6
CC1(C)CC(=O)c2sc(N)nc2C1,-2.0,i,0.94,62,95,101,-9
COc1ccccc1-c1csc(NC(=O)c2cc(-c3cccs3)nc3ccccc23)n1,-1.4,i,0.98,-13,109,109,-4
NC(=O)NC(=O)COC(=O)c1cccnc1Nc1ccccc1F,·,i,0.99,·,·,101,·
# (continued)
SMILES,GALR2 agonist,HSV replic up,HSV replic up primary fold,Insulin prom inh,Insulin prom inh cell count,RGS16-Gao HTS,PKD1 inh
CCCNC(=O)Nc1cc(OCC)c(N2CCOCC2)cc1OCC,-0.8,i,1,·,·,97,-9
Cc1onc(-c2ccccc2)c1C(=O)c1ccccc1,·,i,1.4,·,·,98,·
COc1ccc(N=Cc2c(C)[nH][nH]c2=O)cc1,·,i,0.98,·,·,100,0
O=C(OC1C2CCC1C1CN(CCc3ccccc3)CC12)c1ccccc1 (centres undefined),-0.1,i,0.7,0,157,103,-9
Cc1c(Cl)cccc1NC(=O)Nc1ccn(C)n1,-2.8,i,0.88,·,·,·,0
COc1ccc(CCNC(=O)Cc2cc(OC)c(OC)cc2[N+](=O)[O-])cc1OC,0.1,i,0.88,·,·,100,1
Oc1ccc(CN2CCC(Cc3ccccc3)CC2)c2cccnc12,·,i,0.55,-79,47,97,3
CSc1ccccc1C(=O)NCCSC(C)(C)C,-3.7,i,0.87,40,90,100,-9
Cc1ccc(S(=O)(=O)N2CCN(S(=O)(=O)c3ccc(C)cc3)C2c2ccccc2)cc1,-2.8,i,0.85,-50,72,100,0
N=c1n(Cc2ccc(Cl)cc2)c2ccccc2n1CC(O)c1ccco1 (centres undefined),-3.0,i,1.1,-50,62,97,14
O=C(CSc1cccc2cccc(Cl)c12)NC1=NCCS1,·,i,1.1,·,·,102,2
COc1ccc(C(C(=O)NC2CCCCC2)N(C(=O)Cc2c[nH]c3ccccc23)c2ccccc2)cc1OC (centres undefined),-1.6,i,0.91,19,60,106,4
CN1CCC(N(C)C(=O)CNC(=O)c2ccc(C(C)(C)C)cc2)CC1,·,i,0.93,-18,83,124,-5
Cc1cccc(N(C(=O)CNC(=O)c2ccco2)C(C(=O)NC2CCCC2)c2ccncc2)c1 (centres undefined),-1.8,i,1.1,-238,96,101,1
O=C(CCc1ccccc1)N1CCN(c2ccccc2F)CC1,·,i,1.1,·,·,105,2
CC(C)CC(=O)Nc1cccc(NC(=O)c2ccccc2Cl)c1,-0.8,i,0.85,-4,70,107,-12
Cc1ccnc(NC(=O)CN2C(=O)c3ccccc3C2=O)c1,·,i,0.89,-6,166,97,-3
CCCCN1C(=O)C(O)(CC(=O)c2ccco2)c2cc(Br)ccc21 (centres undefined),-1.3,i,0.74,·,·,103,-10
CCC1Sc2ccccc2N(CC(=O)NC2CC2)C1=O (centres undefined),·,i,1,-17,120,102,-3
CC(c1ccccc1)N1C(=O)c2ccccc2C1O (centres undefined),-1.7,i,1.1,·,·,116,6
CC(C)c1cc(=O)n2[nH]c(N)nc2n1,·,i,1,-33,145,104,2
C=CC[n+]1c(-c2ccc(Cl)cc2Cl)csc1Nc1ccc(NC(C)=O)cc1,·,i,0.97,·,·,97,1
CC(=O)c1ccc(N2Cc3ccccc3/C2=N\C(=O)Nc2ccc(Cl)cc2)cc1,0.0,i,1.2,18,128,47,-1
Cc1c(CNC2CCCC2)c(C(=O)O)c(C)n1Cc1ccccc1,-1.9,i,0.86,-20,72,99,-5
Nc1c(C(=O)N2CCOCC2)sc2nc(N3CCOCC3)c3c(c12)CCCC3,·,i,0.95,·,·,94,·
# The listing continues:
SMILES,GALR2 agonist,HSV replic up,HSV replic up primary fold,Insulin prom inh,Insulin prom inh cell count,RGS16-Gao HTS,PKD1 inh
CCOC(=O)c1ccccc1NC(=O)COC(=O)C1=COCCO1,-3.9,i,0.81,50,130,103,6
COc1ccc(C2=NC(CO)(CO)CO2)cc1,·,i,0.91,·,·,103,-1
CCS(=O)(=O)N1N=C(c2ccc(NS(C)(=O)=O)cc2)CC1c1ccccc1 (centres undefined),1.4,i,0.94,·,·,81,-5
CCOC(=O)c1sc(NC(=O)CCN2CCN(CC)CC2)c(C(=O)OCC)c1C,·,i,0.79,·,·,96,-9
Cn1cccc1/C=C1/SC(=S)N(CC(=O)O)C1=O,·,i,1.1,·,·,101,6
C/C(CC(=O)NCc1ccco1)=N\NC(=O)Cc1ccc(Cl)cc1,-3.4,i,0.92,·,·,108,-9
COc1ccccc1-n1cnnc1SCC(=O)c1ccc[nH]1,-4.8,i,0.8,36,46,-34*,1
O=C(CCOc1ccccc1)Nc1ccccc1[N+](=O)[O-],·,i,0.82,35,106,87,2
Cc1nn(-c2ccc(F)cc2)c(Cl)c1/C=C(\CCC(=O)O)c1nc2ccccc2s1,-1.2,i,0.96,-16,137,120,7
CCOC(=O)C1CCCn2c1nc1sc3c(c1c2=O)CCCC3 (centres undefined),-1.4,i,0.9,40,98,104,-6
CCn1cc(C(=O)NCC2CCCO2)c(=O)c2cc(S(=O)(=O)N(C)C3CCCCC3)ccc21 (centres undefined),0.3,i,0.92,·,·,107,10
Cc1c(Cl)cccc1NC(=O)CCCn1nc([N+](=O)[O-])cc1C,·,i,1,9,129,97,1
Brc1ccc(/C=N/Nc2ccc3ccccc3n2)cc1,-3.7,i,0.92,-45,138,103,-2
CCOC(=O)C1CCN(S(=O)(=O)c2nc3nc(C)cc(C)n3n2)CC1,-0.1,i,0.89,22,74,101,-4
CCn1c(CNC(=O)c2cccs2)nnc1SCC(=O)Nc1cc(Cl)ccc1C,-0.7,i,0.88,-50,132,101,2
CC1=C(C(=O)OC(C)C)C(c2coc3ccccc3c2=O)C2=C(CCCC2=O)N1 (centres undefined),-1.5,i,0.87,-4,94,102,1
CCCn1c(C(Cc2ccccc2)NC(=O)COC)nc2ccccc21 (centres undefined),-0.9,i,1,·,·,105,2
CSc1nc2ncnc(N)c2[nH]1,·,i,1,·,·,98,·
NC(=O)CSc1nnc(CCc2nc3ccccc3[nH]2)n1-c1ccccc1,-1.3,·,·,-67,86,·,2
CCCn1c(N/N=C(C)\C=C\c2ccccc2)nc2c1c(=O)[nH]c(=O)n2C,·,i,0.88,·,·,94,0
C=CCn1c(COc2cc(C)ccc2C(C)C)nnc1SCC(=O)c1c(N)n(C)c(=O)n(C)c1=O,-1.9,i,1,15,67,119,9
CCN(CC)C(=O)c1ccccc1NC(=O)CN1C(=O)c2ccccc2C1=O,·,i,1,·,·,108,-2
O=C(O)C(Cc1cc(Cl)ccc1Cl)Sc1nc2ccccc2[nH]1 (centres undefined),·,i,1.1,·,·,97,·
CCCCCC(=O)NNC(=O)Nc1ccccc1,-1.1,i,1.2,·,·,102,-6
COc1ccc2nc(NNC(=O)COc3ccccc3)sc2c1,·,i,1,-16,98,100,1
# Continued.
SMILES,GALR2 agonist,HSV replic up,HSV replic up primary fold,Insulin prom inh,Insulin prom inh cell count,RGS16-Gao HTS,PKD1 inh
CC(NC(=O)CSc1n[nH]c(=O)n1C1CC1)C12CC3CC(CC(C3)C1)C2 (centres undefined),2.4,i,1,13,149,103,1
CCOc1cc(/C=N/N=C(/N)c2nonc2N)cc(Br)c1OCc1ccc(Cl)cc1,-1.4,i,0.71,-28,104,95,-4
O=S(=O)(NC1CC1)c1ccc(S(=O)(=O)N(Cc2ccccn2)C2CC2)cc1,·,i,1,·,·,100,·
O=C(N/N=C/c1cccs1)c1cccc2cc[nH]c12,0.2,i,0.86,0,68,100,-191
COCCNC(=O)C(c1cccs1)N(C(=O)Cn1nnc2ccccc21)c1cccc(C)c1 (centres undefined),-0.8,i,1,·,·,72,-16
COc1ccc(Cc2nnc(Nc3c(C)cccc3C)o2)cc1OC,·,i,0.91,·,·,100,·
COCC(=O)Nc1cc(Cl)ccc1C,·,i,0.92,8,56,108,-6
O=C(COC(=O)c1cc(S(=O)(=O)NCc2ccccc2)ccc1O)c1cc2ccccc2o1,·,i,1,·,·,98,·
C=CCNC(=O)Nc1ccc2nc(C)sc2c1,·,i,1.1,·,·,101,7
Cn1cc(S(=O)(=O)N2CCCC(C(=O)O)C2)cn1 (centres undefined),·,i,0.91,·,·,100,-6
CCCCn1ccnc1C(=O)c1ccc(S(=O)(=O)N2CCCC2)cc1,·,i,1,·,·,96,·
O=c1[nH]c2ccc(NC(=S)Nc3ccc(F)cc3)cc2[nH]1,·,i,1.1,·,·,102,·
O=C(Nc1ccc(Cl)cc1)c1ccc(Br)cc1F,·,i,1.1,·,·,96,5
COc1ccc2nc(SCC(=O)/C(C#N)=C(\C)N)[nH]c2c1,-2.7,i,0.93,-12,73,103,-8

# Quoted at random: 4 records from the list
SMILES,GALR2 agonist,HSV replic up,HSV replic up primary fold,Insulin prom inh,Insulin prom inh cell count,RGS16-Gao HTS,PKD1 inh
COCCNC(=O)C(c1cccs1)N(C(=O)Cn1nnc2ccccc21)c1cccc(C)c1 (centres undefined),-0.8,i,1,·,·,72,-16
CC(NC(=O)CSc1n[nH]c(=O)n1C1CC1)C12CC3CC(CC(C3)C1)C2 (centres undefined),2.4,i,1,13,149,103,1
C=CCNC(=O)Nc1ccc2nc(C)sc2c1,·,i,1.1,·,·,101,7
COc1ccc2nc(SCC(=O)/C(C#N)=C(\C)N)[nH]c2c1,-2.7,i,0.93,-12,73,103,-8

# Entries of single compounds, quoted from the list. Values in the order: GALR2 agonist | HSV replic up | HSV replic up primary fold | Insulin prom inh | Insulin prom inh cell count | RGS16-Gao HTS | PKD1 inh
# `O=C(Nc1ccc(Cl)cc1)c1ccc(Br)cc1F` across the screens: · | i | 1.1 | · | · | 96 | 5
# `CCOc1cc(/C=N/N=C(/N)c2nonc2N)cc(Br)c1OCc1ccc(Cl)cc1` across the screens: -1.4 | i | 0.71 | -28 | 104 | 95 | -4
# `C=CCNC(=O)Nc1ccc2nc(C)sc2c1` across the screens: · | i | 1.1 | · | · | 101 | 7
# `COCCNC(=O)C(c1cccs1)N(C(=O)Cn1nnc2ccccc21)c1cccc(C)c1` (centres undefined) across the screens: -0.8 | i | 1 | · | · | 72 | -16
